Assay outcomes: PubChem BioAssay, National Center for Advancing Translational Sciences (NCATS)
GLA inh pH 4.5: blocks human alpha-galactosidase A at pH 4.5; 230,000 tested, under 10 active; activity change, negative = inhibition, % at 105 µM; P06280; purified enzyme, 4-MU-alpha-Gal fluorescence, pH 4.5; inconclusive = small, poorly fitted or top-dose-only inhibition, or a rising curve; inactive = flat fitted curve, though single readings scatter; no compound was filed as active;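 note: 0% = full activity with enzyme and -100% = basal without enzyme; dose as in the result columns while the protocol names 77 µM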
miR-21 reporter: miR-21 reporter, rising signal | AID 2288 | 340,000 tested, under 10 active | HeLa miR-21 FLuc reporter, luciferase, 48 h | Potency, µM (titrated, usually from 38.3 µM), for the others: at the top dose reporter change, positive = more light; active = well fitted rising curve with a large enough effect; inconclusive = small, poorly fitted or top-dose-only effect; inactive = no such curve, though single readings can be large or run the other way;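 note: % of control where 0% means no effect; miR-21 action dims this reporter so a rising signal means less miR-21 action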
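Compounds were titrated across several concentrations (up to approximately 40 uM) and incubated 48 hours with HeLa miR-21-FLuc reporter cells (miR-21 target sequence downstream of FLuc, endogenous miR-21). Readout was firefly luciferase luminescence after lytic detection reagent.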
Rango-impB inh: inhibitors of Rango-importin beta complex formation; Q14974; 0.031% of 340,000 active; Rango CFP/YFP FRET sensor + importin beta, 45 min; Potency, µM (highest dose often 92.2 µM), inactives show top-dose inhibition of complex formation; active = rising FRET ratio curve, often small or poorly fitted; inconclusive = mostly compound fluorescence or quenching in the first reads; inactive = flat curves in all reads;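 note: potency is the fitted concentration of half-maximal effect; 0% = DMSO wells and 100% = buffer wells lacking importin beta; nearly all actives have a fitted effect of over 15% in size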
Target sequence (Q14974 whole entry, looked up): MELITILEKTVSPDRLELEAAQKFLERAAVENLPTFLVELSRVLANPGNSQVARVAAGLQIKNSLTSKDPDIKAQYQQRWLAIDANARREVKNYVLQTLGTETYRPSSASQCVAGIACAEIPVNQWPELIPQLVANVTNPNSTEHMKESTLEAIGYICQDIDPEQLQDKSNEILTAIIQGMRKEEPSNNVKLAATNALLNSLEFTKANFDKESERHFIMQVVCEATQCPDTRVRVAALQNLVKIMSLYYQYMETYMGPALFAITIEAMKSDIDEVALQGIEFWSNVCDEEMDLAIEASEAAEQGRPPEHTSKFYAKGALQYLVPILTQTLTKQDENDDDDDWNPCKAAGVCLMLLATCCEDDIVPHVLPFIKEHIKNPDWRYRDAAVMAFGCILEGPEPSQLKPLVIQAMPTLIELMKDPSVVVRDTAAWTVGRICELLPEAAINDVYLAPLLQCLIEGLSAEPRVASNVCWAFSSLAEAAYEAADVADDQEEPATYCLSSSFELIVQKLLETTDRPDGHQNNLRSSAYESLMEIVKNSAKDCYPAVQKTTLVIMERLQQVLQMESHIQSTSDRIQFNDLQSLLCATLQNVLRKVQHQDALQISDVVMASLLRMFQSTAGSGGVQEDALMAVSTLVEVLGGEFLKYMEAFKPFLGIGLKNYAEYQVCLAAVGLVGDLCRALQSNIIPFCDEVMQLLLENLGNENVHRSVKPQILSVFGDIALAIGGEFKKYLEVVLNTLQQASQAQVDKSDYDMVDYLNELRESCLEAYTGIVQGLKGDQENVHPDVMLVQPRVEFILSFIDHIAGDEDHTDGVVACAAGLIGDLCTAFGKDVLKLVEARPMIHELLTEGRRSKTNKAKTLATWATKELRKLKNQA
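Inhibition scored from the CFP 486 nm/YFP 530 nm FRET ratio 45 min after adding 0.125 microM importin beta to 50 nM Rango biosensor preincubated 5 min with compound (room temperature, PBS with DTT, Tween-20, BSA). No-importin wells as positive control.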
Rango dissoc inh: inhibition of RanGTP-driven Rango-importin beta dissociation; O95149+P62826; Biochemical FRET Rango-importin beta, RanGTP-induced dissociation; Potency, µM (top dose mostly 46.1 µM), inactives show at the highest dose activity change, negative = inhibition; 0.071% of 340,000 active; AID 540253; active means falling FRET ratio curve, often poorly fitted, with flat reads before Ran was added; inconclusive means other falling curves, or compound fluorescence or quenching; inactive means flat or rising ratio curve;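 note: potency is the fitted concentration of half-maximal effect; % of control where 0% means no effect; nearly all actives have a fitted effect of over 45% in size; -100% = wells without RanGTP and RCC1; the record marks most hits as doubtful in a second field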
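Recombinant Rango FRET biosensor (EYFP–snurportin 1 IBB–cerulean CFP10) at 0.1 uM premixed with 0.25 uM importin beta in PBS, 1 mM DTT, 0.02% Tween-20, 0.1% BSA. Compound added 5 min; RanGTP-RCC1 (0.6 uM Ran, 2 mM GTP, 0.2 uM RCC1) then triggers release, read at 45 min.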
Active calls of the source: *; ? = inconclusive; . = no result given; & = joins results of further samples.

miR-21 reporter,SMILES,Rango-impB inh,Rango dissoc inh,GLA inh pH 4.5
-31%,c1ccc(SCc2nc3ccccc3[nH]2)nc1,0.4%,4%,6
1%,COCCNC(=O)COc1cc(=O)n(C)c2ccccc12,0.4%,-18%,6
0%,O=C(NCCc1ccccc1)/C(=C\c1cccc([N+](=O)[O-])c1)NC(=O)c1ccco1,-4.9%,-17%,.
-13%,Cc1ccccc1NC(=O)c1c(Cl)nc(C)c(Cl)c1C,-3.3%,20%,-2
.,CCC(NC(=O)CNC(=O)c1ccc2c(c1)OCO2)c1ccc(Br)cc1 (stereo unspecified),-0.5%,-14%,.
.,O=C(COC(=O)/C=C/c1ccc(Br)o1)Nc1cccc(S(=O)(=O)N2CCOCC2)c1,1.8%,-11%,.
-3%&-10%,Cc1ccc2nc(NCCc3ccc(Cl)cc3)c3nncn3c2c1,?,-1%,.
-2%,CCOc1ccc(-c2c(=O)n(OCc3ccccc3Br)c3ccccc3[n+]2[O-])c(OCC)c1,?,-20%,-18
-1%,CC1Cn2c(nc3c2c(=O)[nH]c(=O)n3C)O1 (stereo unspecified),-5.8%,0%,5
0%,CCOc1cc(CNc2nn[nH]n2)ccc1OCC(=O)NC(C)(C)C,-0.1%,1%,-2
-12%,Cc1nc2nc[nH]n2c(=O)c1CCC(C)C,2.9%,0%,-10
0%,O=C(CN1N=C(c2ccccc2)CCC1=O)NCc1ccco1,.,.,-3
.,C[C@H](O)[C@@H]1C(=O)N2CCc3ccc(N4CCOCC4)cc3[C@@H]2C[C@@H]1N(C)S(=O)(=O)c1ccccc1,0.9%,10%,.
-3%,COc1ccccc1NC(=O)CC1S/C(=N/N=C2\CCCc3ccccc32)NC1=O (stereo unspecified),-1.8%,-7%,-5
-3%,CCCCN(C(=O)c1ccc(S(=O)(=O)N(CC)CC)cc1)c1c(N)n(CCC)c(=O)[nH]c1=O,0.6%,4%,.
-5%,O=C(CN1NS(=O)(=O)c2ccccc2C1=O)Nc1ccccc1OC(F)F,-0.8%,-6%,-11
.,CSc1ncccc1C(=O)Nc1ccc2c(c1)OCCO2,-0.7%,12%,.
-2%,O=C1NC(NS(=O)(=O)c2ccccc2)(C(F)(F)F)C(=O)N1Cc1ccccc1 (stereo unspecified),-1.8%,9%,.
-1%,CCOC(=O)c1cc(S(=O)(=O)N2CCN(c3ccccc3OC)CC2)cn1C,-0.5%,-28%,.
-1%,COC(=O)c1nn(-c2ccccc2)c(=O)cc1Oc1ccccc1,-8.2%,9%,6
-5%,CC1CCN(S(=O)(=O)c2ccc3c(ccn3CCC(=O)NC(C)C)c2)CC1,4.9%,1%,.
10%,O=C(CN(Cc1ccco1)C(=O)CNS(=O)(=O)c1ccc(Cl)cc1)NCC1CCCO1 (stereo unspecified),-4.9%,-1%,5
.,O=S(=O)(NCCCCNS(=O)(=O)c1ccc(F)cc1)c1ccc(F)cc1,-0.1%,-9%,.
-3%,COc1ccc(-c2[nH]n(-c3ccc([N+](=O)[O-])cc3)c(=O)c2C=NCc2ccncc2)cc1,2.3%,8%,1
.,Cc1ccc(NC(=O)CSc2nc(N)cc(=O)[nH]2)cc1S(=O)(=O)N1CCCCCC1,3.8%,26%,.
5%,CCNS(=O)(=O)c1ccc(CCC(=O)N2CCN(c3ccc(OC)cc3)CC2)cc1,-0.7%,24%,.
-4%,Cc1ccccc1C(=O)NNc1ncnc2c1cnn2C,-2.3%,-8%,-4
8%,O=C(CNC(=O)c1ccco1)N/N=C/c1c[nH]c2ccccc12,-0.5%,25%,1
.,CCOC(=O)c1ccc(N2Cc3ccccc3C2=NC(=O)c2cccc([N+](=O)[O-])c2)cc1,0.7%,30%,.
-3%,Cc1cc(C)c(S(=O)(=O)/N=C2\C=CC(=O)C(Cl)=C2)c(C)c1,?,-8%,0

(list continues)
miR-21 reporter,SMILES,Rango-impB inh,Rango dissoc inh,GLA inh pH 4.5
-16%,CC(=O)OCC1(C)CN(c2ccccc2)N(C(=O)c2ccc(F)cc2)C1=O (stereo unspecified),2.9%,-12%,6
-2%,Cc1ccc(/C=C/C(=O)O)cc1S(=O)(=O)Nc1ccc(C(=O)O)cc1,0.3%,7%,-13
.,O=C(Nc1cccc(-c2ccc(N3CCOCC3)nn2)c1)c1ccccc1,-1.8%,10%,.
-11%,CNC(=O)C1CC(=O)N(CCc2ccccc2)C(=Nc2ccc(OC)cc2)S1 (stereo unspecified),-0.5%,14%,-8
4%,COc1ccc(N(CC(=O)N/N=C/c2ccc3c(c2)OCO3)S(=O)(=O)c2ccccc2)cc1,.,.,8
1%,Cc1cc(OCc2nc(-c3ccc(NC(=O)c4cccnc4)cc3)no2)ccc1Cl,3.4%,3%,-6
.,Clc1cc(Cl)c2nc(N3CCCC3)sc2c1,-0.7%,0%,.
0%,Cc1ccc(S(=O)(=O)NCCCCCC(N)=O)cc1,-3.6%,4%,2
-6%,Cn1ncc(N=Cc2ccccc2[N+](=O)[O-])c1C(N)=O,2.7%,-5%,-4
-10%,CN(C)c1c(N)[nH]c2c(c1=O)c(=O)n(C)c(=O)n2C,-0.6%,-8%,1
-2%,CCOC(=O)c1sc(NC(=O)CSc2nccc(C)n2)c(C#N)c1C,?,-1%,8
-4%,CC(=O)Nc1nc(C)nc(-c2ccccc2)c1C(C)=O,-0.5%,15%,11
-8%,COc1ccccc1N1CCN(C(=O)c2cnn3cccnc23)CC1,.,.,4
-3%,COC(=O)c1cc(CN2CCN(c3ccccc3C)CC2)ccc1O,-3.5%,5%,-18
-4%,CCCCC(=O)Nc1ccc(C(=O)NNC(=O)c2ccco2)cc1,1.5%,-12%,-17
-5%,Cc1cc(NC(=O)Cc2cccs2)nn1CC(=O)NCc1ccco1,-4.2%,1%,-4
-29%,CSc1cccc(NC(=O)c2ccc(Cl)nc2)c1,-1.0%,-1%,6
-9%,COc1cc(C)c(S(=O)(=O)NC2CC(C)(C)NC(C)(C)C2)cc1C,-1.5%,23%,-1
.,CCCCCN(C(=O)CCC(=O)OCc1cc(C(C)=O)ccc1OC)c1c(N)n(CCCC)c(=O)[nH]c1=O,0.1%,1%,.
-2%,COc1ccc(C)cc1S(=O)(=O)N(C)CC(N)=O,2.5%,16%,-3
.,CCOc1ccc(N2CC(C(=O)Nc3cccc(S(=O)(=O)N4CCCC4)c3)CC2=O)cc1 (stereo unspecified),2.0%,-13%,.
-2%&-1%,COc1cc(NC(=O)CCN2CCN(CCO)CC2)cc(OC)c1,-0.1%,15%,.
-4%,O=C(NN=C1CCCCCCC1)C(=O)NC1CCCCC1,3.5%,-11%,0
-6%,Cc1nc2ccccn2c1C(=O)N/N=C/c1cc(C)n(-c2ccc(Cl)cc2)c1C,?,?,5
-4%,O=C1CCCN1CCC1CCN(C(=S)Nc2ccc(F)cc2)CC1,-2.1%,15%,1
1%,CCn1c(SCC(=O)c2ccccc2)nc2c(c1=O)SC(C)C2 (stereo unspecified),-3.1%,0%,-11
2%,COCCN1C(=O)c2ccccc2C(C(=O)N2CCN(c3ccccn3)CC2)C1c1ccc(F)cc1 (stereo unspecified),-0.1%,-6%,2
-3%,Cc1ccc(NC(=O)CSCC(=O)O)c(C)c1,0.1%,3%,-14
1%,CN(Cc1ccccc1)C(=O)CCn1c(=O)c2cccn2c2cccnc21,-5.0%,19%,.
-26%,CC1CCN(c2ccccc2NC(=O)c2ccc(C#N)cc2F)CC1,0.7%,12%,9

Looked up one by one from the entries so far:
miR-21 reporter,SMILES,Rango-impB inh,Rango dissoc inh,GLA inh pH 4.5
-4%,CC(=O)Nc1nc(C)nc(-c2ccccc2)c1C(C)=O,-0.5%,15%,11
-4%,O=C(NN=C1CCCCCCC1)C(=O)NC1CCCCC1,3.5%,-11%,0
-2%&-1%,COc1cc(NC(=O)CCN2CCN(CCO)CC2)cc(OC)c1,-0.1%,15%,.

(list continues)
miR-21 reporter,SMILES,Rango-impB inh,Rango dissoc inh,GLA inh pH 4.5
-19%,CCc1ccc2nc(N(CCN(C)C)C(=O)c3ccc4ccccc4c3)sc2c1,-2.8%,-20%,.
-1%,Cc1cc(Cl)ccc1OC(C)C(=O)NN=C1CCCCCC1 (stereo unspecified),0.0%,-6%,.
-22%,COCCCNc1nc(SCc2ccccc2)nc2sc3c(c12)CCC3,3.6%,-15%,-5
.,COc1ccccc1NC(=O)C(C)Sc1nc2ccccc2c(=O)n1CC1CCCO1 (stereo unspecified),2.1%,1%,.
9%,Fc1ccc(N2CCN(Cc3cnc(N4CCOCC4)s3)CC2)cc1,-1.5%,29%,5
2%,CCOC(=O)c1cn(-c2nc(-c3ccc(Cl)c(Cl)c3)cs2)c2c(F)c(N3CCOCC3)c(F)cc2c1=O,-0.4%,2%,10
-2%,O=C(Nc1ccc(S(=O)(=O)Nc2ncccn2)cc1)c1ccccc1NS(=O)(=O)c1ccc(Cl)cc1,1.9%,-2%,-4
1%,CCOC(=O)C1(Cc2cccc(F)c2)CCN(C(=O)Cn2cnnn2)CC1,0.0%,-3%,-3
-20%,Cc1nn(C)cc1/C=N\NC(=O)c1ccc2c(c1)c(C)c(C)n2Cc1ccccc1,-1.8%,-3%,-1
.,O=C(NCC(c1ccco1)N1CCCC1)c1ccc(S(=O)(=O)Nc2ccccc2F)cc1 (stereo unspecified),3.2%,4%,.
.,CC(C)(C)C(=O)C(C(c1ccccc1)N1CCOCC1)N1CCOCC1 (stereo unspecified),6.6%,20%,.
2%,CCOC(=O)c1c(NC(=S)NC(=O)/C=C/c2cccs2)sc(C)c1C,-3.7%,0%,4
-5%,O=C(NCCc1cnc[nH]1)Nc1cccc(C(F)(F)F)c1,-0.5%,3%,.
1%,O=[n+]1cc(-c2ccc(Cl)cc2)n([O-])c2c1CCCCC2,-0.1%,0%,2
0%,Cc1c(C#N)c(NC(=O)c2ccccc2)n(Cc2ccccc2)c1C,0.3%,-11%,2
-5%,CCOc1ccccc1N1CCN(C/C=C/c2ccc(N(C)C)cc2)CC1,4.2%,-16%,0
-76%,c1ccc(-c2cc3nccc(-c4ccccn4)n3n2)cc1,?,-8%,-2
0%,CCc1nnc(NC(=O)CSc2nnc3nc(C)cc(C)n23)s1,0.5%,3%,.
-56%,C/C(=N\NC(=O)CSc1nc2ccccc2o1)c1ccc(O)cc1,0.2%,4%,-21
1%,Cc1ccc(C)c(C(=O)CN2C(=O)c3ccccc3C2=O)c1,3.2%,1%,.
-8%,O=C(CCC1CCCN(C(=O)c2cccnc2)C1)NCc1ccccc1F (stereo unspecified),0.3%,-2%,.
1%,CCCC1(c2ccccc2)NC(=O)N(CC(=O)NCc2ccc(OC)cc2)C1=O (stereo unspecified),-0.3%,-5%,.
5%,CC(=O)NCC1(O)CCCC(C)C1 (stereo unspecified),3.0%,23%,1
-6%,CC1CCCC(C)N1CCCNC(=O)c1cc2c(=O)n(C)c3ccccc3c2n1C (stereo unspecified),-2.4%,0%,-11
.,O=C(Cn1cnc2c(NCc3ccccc3)ncnc21)NCCCc1ccccc1,-0.5%,9%,.
-19%,CCC(C)[C@H](NC(=O)OC(C)(C)C)C(=O)N/N=C/c1ccc2cc(OC)ccc2n1 (stereo partly specified),5.1%,-8%,-14
0%,Cc1ccc2nc(C)cc(N/N=C/c3cccc(O)c3)c2c1,0.6%,-9%,.

In a second layout: entries from further up
Molecule | miR-21 reporter | Rango-impB inh | Rango dissoc inh | GLA inh pH 4.5
CCCCN(C(=O)c1ccc(S(=O)(=O)N(CC)CC)cc1)c1c(N)n(CCC)c(=O)[nH]c1=O | -3% | 0.6% | 4% | .
O=C(CN1NS(=O)(=O)c2ccccc2C1=O)Nc1ccccc1OC(F)F | -5% | -0.8% | -6% | -11

This is a subset (hit frequency here may not be typical).
